High-throughput results as filed in PubChem.
FPRL1 binder: human FPRL1 ligand, with FPR counter-screen; FPRL1-expressing cells, fluorescent ligand binding inhibition, flow cytometry; inhibition, %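 (tested at 6.7 µM)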; AID 441; P25090; actives 0.3% (n = 24,000);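 further: 0% = buffer alone and 100% = receptor blocker peptide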
Target sequence (P25090 whole entry, looked up): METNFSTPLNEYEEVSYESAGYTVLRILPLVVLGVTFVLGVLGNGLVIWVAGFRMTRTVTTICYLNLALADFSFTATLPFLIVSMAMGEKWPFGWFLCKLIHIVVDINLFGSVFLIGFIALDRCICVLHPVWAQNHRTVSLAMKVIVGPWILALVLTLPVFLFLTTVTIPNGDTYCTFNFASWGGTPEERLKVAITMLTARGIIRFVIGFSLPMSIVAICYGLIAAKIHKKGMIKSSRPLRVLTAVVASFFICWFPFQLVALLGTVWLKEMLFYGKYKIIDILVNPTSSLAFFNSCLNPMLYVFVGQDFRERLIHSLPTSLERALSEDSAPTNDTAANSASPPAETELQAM
VCAM-1 inhibition: suppression of endothelial VCAM-1 upregulation – cell-based, plate reader, pooled HUVEC, TNFa stimulus (AID 454) | HUVEC TNFa-induced VCAM-1 surface immunofluorescence, plate reader; numbers were filed only for top-ranked candidate wells | inhibition, % at 5 µM | actives 0.2% (n = 10,000);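 active means compound among top-ranked inhibitors of TNF-induced VCAM-1 adhesion protein staining, with the hit upheld by image or statistical review; inactive means the rest, including hits rejected on review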;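 further: 0% = TNFa with vehicle and 100% = cells without TNFa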
VCAM-1 imaging: suppression of endothelial VCAM-1 upregulation – imaging, high-content imaging, pooled HUVEC, TNFa stimulus (AID 456) | HUVEC TNFa-induced VCAM-1 surface expression, immunofluorescence imaging; numbers were filed only for top-ranked candidate wells | one-dose inhibition, % at 5 µM; IC50 in µM for titrated hits | actives 0.2% (n = 10,000);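 active means top tenth filtered wells with inhibition above zero that passed visual or statistical confirmation; inactive means the rest, including hits rejected on review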;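 further: 0% = stimulated vehicle wells and 100% = unstimulated cells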
VCAM-1 up imaging: boosters of cytokine-driven VCAM-1 levels – imaging, high-content imaging, pooled HUVEC, TNFa stimulus (AID 457); calls only; actives 0.2% (n = 10,000); Pooled HUVEC, TNFa-induced VCAM-1 immunofluorescence imaging; hits of this screen are not shown here;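 active means a top-ranked rise in VCAM-1 staining upheld on image or statistical review; inactive means the rest, including candidates rejected on review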;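 further: compounds tested at 5 µM in the well; cells exposed to compound for 24 hours before fixing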
FPR binder: human FPR ligand, with FPRL1 counter-screen; FPR-expressing cells, fluorescent ligand binding, flow cytometry; P21462; inhibition, %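 (tested at 6.7 µM)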; actives 0.74% (n = 24,000); AID 440;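 further: 0% = buffer wells and 100% = receptor blocker peptide wells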
Target sequence (P21462 whole entry, looked up): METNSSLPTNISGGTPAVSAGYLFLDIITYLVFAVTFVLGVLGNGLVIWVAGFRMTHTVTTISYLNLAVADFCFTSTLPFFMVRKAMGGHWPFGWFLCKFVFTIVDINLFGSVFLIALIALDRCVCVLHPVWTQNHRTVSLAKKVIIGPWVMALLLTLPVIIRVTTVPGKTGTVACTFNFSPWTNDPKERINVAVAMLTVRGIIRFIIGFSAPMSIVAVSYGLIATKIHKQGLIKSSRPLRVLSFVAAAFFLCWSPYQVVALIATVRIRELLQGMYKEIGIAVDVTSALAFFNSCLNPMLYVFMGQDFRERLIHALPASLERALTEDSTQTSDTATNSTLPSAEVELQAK
* = called active by the depositor; i = inactive; · = no result given.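 How the source made its calls, unless noted: active means mean above 30%; inconclusive means self-fluorescent; inactive means the rest.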

Fields: FPRL1 binder | VCAM-1 inhibition | VCAM-1 imaging | VCAM-1 up imaging | FPR binder
CCOC(=O)CCC(=O)O[C@H]1[C@H](O[C@@H]2[C@@H](C)[C@H](O[C@H]3C[C@@](C)(OC)[C@@H](O)[C@H](C)O3)[C@@H](C)C(=O)O[C@H](CC)[C@@](C)(O)[C@H](O)[C@@H](C)C(=O)[C@H](C)C[C@@]2(C)O)O[C@H](C)C[C@@H]1N(C)C
→ -2 | i | i | i | 0
O=C(CN1CCN(S(=O)(=O)c2ccc(F)cc2)CC1)Nc1ccc(Cl)c(C(F)(F)F)c1
→ -2 | · | · | · | -7
Cn1c(=O)c2c(nc(SCC(=O)NCc3ccc4c(c3)OCO4)n2Cc2ccccc2)n(C)c1=O
→ -3 | i | i | i | -14
COc1ccc(C(=O)CSc2nnc(C3CCCCC3)n2N)c(OC)c1
→ -3 | i | i | i | -7
CNC(=O)c1c[nH]n2c(=O)c(Cc3ccccc3F)c(C)nc12
→ -2 | · | · | · | 4
O=C(CCn1cccc1)Nc1nccs1
→ 1 | · | · | · | -2
COC(=O)CC1Oc2ccccc2N(Cc2ccc(C)cc2)C1=O (configuration not stated)
→ 6 | · | · | · | 11
COc1ccccc1N1CCN(C(CNS(=O)(=O)c2ccccc2)c2cccnc2)CC1 (configuration not stated)
→ -2 | · | · | · | 6
O=C(Cn1nc(Cc2cccnc2)c2ccccc2c1=O)NCC1COc2ccccc2O1 (configuration not stated)
→ -7 | · | · | · | 7
Cc1c(C(=O)NC2CCCc3ccccc32)oc2ccc(S(=O)(=O)N3CCOCC3)cc12 (configuration not stated)
→ 8 | i | i | i | 38*
Cn1c(C(=O)N2CCCC(C(=O)NCc3cccs3)C2)cc2sccc21 (configuration not stated)
→ 0 | · | · | · | -4
CCN(CCCNC(=O)CCCN1C(=O)COc2ccc(C)cc21)c1cccc(C)c1
→ -6 | · | · | · | 6
CC1(O)c2ccccc2C(=O)N1CCc1ccccc1F (configuration not stated)
→ 1 | · | · | · | 5
C=CCOc1cccc(C2C(C(=O)c3ccc(C)o3)=C(O)C(=O)N2Cc2ccncc2)c1 (configuration not stated)
→ 0 | · | · | · | -8
Cc1cccc(C)c1OCc1nnc(SCC(=O)Nc2nccs2)o1
→ -1 | · | · | · | 2
CCCOC(=O)c1cc2ccccc2oc1=O
→ -2 | · | · | · | -2
O=C(c1cc(-c2ccco2)nn1-c1cccc(Cl)c1)N1CCCCC1
→ 0 | i | i | i | 3
CNC(=O)c1ccc(Oc2ccc(C(=O)NC)cc2)cc1
→ 0 | · | · | · | -2
Cc1ccccc1-n1nnc2c(=O)oc3ccccc3c21
→ -2 | i | i | i | -11
CCCOc1ccc2c(=O)c(-c3cc(C(=O)OC)oc3C)c(C)oc2c1
→ 0 | · | · | · | 1
C/C(N)=C(/C#N)C(=O)CSc1nnc(Nc2cccc(C)c2)s1
→ -2 | i | i | i | -2
Cc1ccc(-n2c(Cc3cccn3C)nnc2SCC(=O)Nc2cc(C)on2)cc1
→ 14 | · | · | · | 6
O=C(NCCN1C(=O)C2C3C=CC(C3)C2C1=O)Nc1cccnc1 (configuration not stated)
→ 10 | · | · | · | -2
COc1ccc(-n2c(Cc3cccn3C)nnc2SCC(=O)Nc2cccc(Cl)c2)cc1
→ -1 | i | i | i | -7
CCOc1ccc(NC(=O)CSc2nc3ccccc3c(=O)n2CCNC(C)=O)cc1
→ 0 | · | · | · | -7
O=C(Nc1cnc2ccccc2c1)c1ccncc1
→ -4 | · | · | · | -6
O=C(c1ccco1)N1CCN(C(=O)C2CCN(S(=O)(=O)c3cccc4nsnc34)CC2)CC1
→ 1 | i | i | i | -3
CCOC(=O)N1CCN(S(=O)(=O)c2ccc(C(=O)Nc3nc4c(s3)CC(C)CC4)cc2)CC1 (configuration not stated)
→ -10 | · | · | · | 2
COc1ccccc1OCCNC(=O)c1cccs1
→ -1 | i | i | i | 6
CCOc1cccc(-c2nnc3n2N=C(c2cc(OC)ccc2OC)CS3)c1
→ -5 | i | i | i | 6
CCOc1ccccc1NC(=O)Cn1nnc(C(=O)Nc2ccccc2Cl)c1N
→ -1 | · | · | · | -5
CSc1ccc(C2NC(=O)c3c(sc4c3CCN(C)C4)N2)cc1 (configuration not stated)
→ -4 | · | · | · | -3
O=C(Cn1nc(-c2ccc(Cl)cc2)ccc1=O)N1CCN(c2ccccc2)CC1
→ -10 | · | · | · | -1
Cc1nn(C)c(C)c1S(=O)(=O)NC1CCCC1
→ 1 | · | · | · | -7
CCOC(=O)C(C)n1cnc2c(nnn2Cc2ccc(C)cc2)c1=O (configuration not stated)
→ -1 | i | i | i | -2
CCc1ccc(C2CC(c3ccccc3Cl)Nc3nc(N)nn32)cc1 (configuration not stated)
→ 1 | · | · | · | 2
Cc1sc2ncnc(SCC(=O)N3CCCC3)c2c1C
→ -10 | i | i | i | 3
O=C(Nc1ccc2[nH]c3c(c2c1)CCCC3)c1ccco1
→ -2 | i | i | i | -6
O=C(CCn1c(=O)[nH]c2ccsc2c1=O)N1CCN(Cc2ccc3c(c2)OCO3)CC1
→ 3 | · | · | · | 10
COc1cc(C2C(C(=O)c3ccc(C)o3)=C(O)C(=O)N2c2cc(C)on2)cc(Br)c1O (configuration not stated)
→ 2 | i | i | i | 28

Taken from above.
`O=C(CCn1c(=O)[nH]c2ccsc2c1=O)N1CCN(Cc2ccc3c(c2)OCO3)CC1` | FPRL1 binder = 3
`CCOc1ccccc1NC(=O)Cn1nnc(C(=O)Nc2ccccc2Cl)c1N` | FPRL1 binder = -1

(further entries)
Fields: FPRL1 binder | VCAM-1 inhibition | VCAM-1 imaging | VCAM-1 up imaging | FPR binder
Cc1ccc(Cl)cc1N1CCN(C(=O)c2ccc(NS(=O)(=O)c3c(C)noc3C)cc2)CC1
→ -7 | · | · | · | 2
O=C(c1ccc(CNS(=O)(=O)c2ccccc2)cc1)N1CCN(c2ccccn2)CC1
→ 0 | · | · | · | -2
Cc1cc(N2C(=O)C(O)=C(C(=O)c3ccco3)C2c2ccc(O)cc2)no1 (configuration not stated)
→ 5 | · | · | · | -6
O=C1C(Cl)=C(N2CCCCC2)C(=O)N1c1ccccc1Cl
→ -4 | i | i | i | 0
COc1ccccc1NC(=O)N1c2ccc(F)cc2CCC1C (configuration not stated)
→ 0 | i | i | i | 2
Cc1cc(=O)n2nc(N3CCCC(C(=O)NCCCN4CCc5ccccc5C4)C3)sc2n1 (configuration not stated)
→ -1 | · | · | · | -2
CCOC(=O)c1cccc(NC(=O)CN(c2ccc(OC)cc2)S(=O)(=O)c2c(C)noc2C)c1
→ 8 | · | · | · | -4
CCOc1cc(NC(=O)c2ccco2)c(OCC)cc1NC(=O)COc1ccccc1C
→ 5 | i | i | i | 9
COC(=O)C1=C(C)NC(=O)C1(NC(=O)CN1CCCC1=O)C(F)(F)F (configuration not stated)
→ 3 | i | i | i | 5
COc1cccc(N2C(N)=NC(N)=NC2(C)C)c1
→ 6 | · | · | · | -6
CC1=C(C(=O)Nc2cc(-c3cccc(F)c3)[nH]n2)C2(CCCCC2)OC1=O
→ -2 | · | · | · | 7
CCOC(=O)N1CCN(C(=O)CCCn2nc(C)c3sc4ccccc4c3c2=O)CC1
→ -5 | · | · | · | -2
CCOc1ccccc1N(CC(=O)N1CCCCCC1)S(C)(=O)=O
→ -2 | i | i | i | -3
Cc1ccccc1-c1nc(CS(=O)(=O)CC(=O)NCc2ccccc2)c(C)o1
→ 0 | i | i | i | 0
O=c1[nH]ncc2c3ccccc3n(Cc3ccccc3F)c12
→ -5 | · | · | · | -12
COc1ccc2c(c1)C(C)=CC(C)(C)N2C(=O)C(C)N1C(=O)c2ccccc2C1=O (configuration not stated)
→ -7 | i | i | i | -3
COc1cccc(N2CCN(C(=O)C3CCCN(S(=O)(=O)c4cnc[nH]4)C3)CC2)c1 (configuration not stated)
→ 2 | · | · | · | -4
Cc1cc(C(=O)Nc2cccnc2)on1
→ 14 | · | · | · | 1
CCOC(=O)C1CCCN(C(=O)CNC(=O)Cn2ccc3ccccc3c2=O)C1 (configuration not stated)
→ -4 | · | · | · | -5
Clc1ccc(Cn2cccc2C2=NCCO2)cc1
→ 1 | · | · | · | 0
CCC(C)(C(=O)NC1CCCC1)N(CC1CCCO1)C(=O)CNC(=O)c1ccccc1 (configuration not stated)
→ 25 | · | · | · | -1
COc1ccc(C2=NOC(C(=O)NCc3ccc(F)cc3)C2)cc1OC (configuration not stated)
→ 0 | i | i | i | -8
O=C(O)c1ccccc1C(=O)Nc1n[nH]c(=S)s1
→ -2 | · | · | · | -4
O=P(c1ccccc1)(c1ccccc1)C(c1ccco1)N1CCOCC1 (configuration not stated)
→ 0 | · | · | · | 1
CN(CCNC(=O)CN1CCN(Cc2ccccc2Cl)C1=O)Cc1ccccc1
→ 3 | · | · | · | 2
CC(=O)OC(C)C[N+](C)(C)C (configuration not stated)
→ -4 | i | i | i | 3
Cc1ccc(N2C(=O)c3ccccc3C2Nc2ccccc2F)nc1 (configuration not stated)
→ -2 | · | · | · | -1
O=C1C(O)CC2c3ccccc3CC3(CCCC3)N12 (configuration not stated)
→ 1 | · | · | · | 5
Cc1ccc(C2C3=C(CC(C)(C)CC3=O)N(CCN3CCOCC3)C3=C2C(=O)CC(C)(C)C3)cc1
→ 2 | · | · | · | 5
CC1CCCCC1NC(=O)c1nn(C)c(=O)c2ccccc12 (configuration not stated)
→ 1 | i | i | i | -3
Cc1[nH]n2c(=O)cc(C(C)C)nc2c1-c1ccccc1
→ -1 | · | · | · | -4
CCOC(=O)C1CCN(C(=O)c2cc3c(-c4ccc(OC)c(OC)c4)nn(C)c3s2)CC1
→ 1 | · | · | · | 5
COc1ccc(-c2nc(-c3ccc(Br)o3)no2)cc1OC
→ 31* | · | · | · | 17
COC(=O)Nc1nc2ccc(Sc3ccccc3)cc2[nH]1
→ 6 | i | i | i | 0
CCc1[nH]nc2c1C(c1ccncc1)C(C#N)=C(N)O2 (configuration not stated)
→ 2 | i | i | i | 0
Cc1cc(NC(=O)CSc2nnc(Cc3cccn3C)n2CCc2ccccc2)no1
→ -1 | · | · | · | 14
COCc1nnc(NC(=O)c2ccc(NC(C)=O)cc2)s1
→ 4 | i | i | i | -8
O=C(Cn1ncn2c(cc3ccccc32)c1=O)NCCC1=CCCCC1
→ 2 | · | · | · | 1
CCC(=O)N1CCc2cc(S(=O)(=O)CCC(=O)Nc3cccc(F)c3)ccc21
→ 10 | · | · | · | 4
CC12CC(c3ccccc3O1)N(C(=O)c1ccco1)C(=O)N2c1ccccc1 (configuration not stated)
→ 0 | · | · | · | -5
COC(=O)Cn1c(=O)c2c(nc(Br)n2CC(=O)OC)n(C)c1=O
→ 1 | i | i | i | -4
CCOC(=O)CSc1nnc(-c2cccnc2)n1Cc1ccccc1
→ 2 | i | i | i | -4
CCOC(=O)N1CCC(NC(=O)c2cccc3c2C(=O)N(c2ccc(OC)cc2)C3)CC1
→ 6 | · | · | · | 8
COc1ccccc1-c1cc(C(=O)Nc2ccc(F)cc2F)no1
→ 0 | · | · | · | -2
COc1ccc(CCNC(=O)c2cc3sc(Cl)cc3n2C)cc1OC
→ 0 | i | i | i | 2
Cn1c(C(=O)NCc2ccco2)cc2c(=O)[nH]c3ccccc3c21
→ 12 | · | · | · | -3
Cc1ccc(-n2ncc3c(=O)n(CC(=O)NCc4ccco4)cnc32)cc1
→ 2 | i | i | i | 3
CCOC(=O)c1sc(=NC(=O)c2cccc(OC)c2)n(C)c1C
→ 2 | · | · | · | 3
O=C(O)CCCn1c(=O)[nH]c2ccccc2c1=O
→ 1 | · | · | · | -4
CC(=O)Nc1ccc(N=Cc2ccc[nH]2)cc1
→ -2 | i | i | i | 4
COc1ccc(C2CC(c3ccc(Cl)cc3)Nc3nc(NC(=O)c4ccco4)nn32)cc1 (configuration not stated)
→ -3 | i | i | i | 10
O=C(NCc1cccnc1)c1cnn2ccccc12
→ 0 | · | · | · | -2
Cc1nn(C)c(C)c1S(=O)(=O)N(CC(=O)Nc1ccccn1)c1ccc(C(C)C)cc1
→ 0 | · | · | · | 1
O=C(Nc1c2c(nn1-c1ccc(F)cc1)CSC2)c1ccc(S(=O)(=O)N2CCOCC2)cc1
→ -5 | · | · | · | 2
CC1CCN(c2nc3ccc(C(=O)O)cc3s2)CC1
→ -15 | · | · | · | -1
O=C(CSc1nc2sc3c(c2c(=O)n1-c1ccccc1)CCCC3)NCc1ccco1
→ 2 | · | · | · | 1
CC(=O)N1CN(C2CCCC2)Cc2c1sc1c2CCCC1
→ 3 | i | i | i | -3
CCC(C)NC(=O)CSC1=Nc2ccccc2C2=NC(CC(=O)NCc3ccc(F)cc3)C(=O)N12 (configuration not stated)
→ 0 | · | · | · | -2
COc1ccc(CCNC(=O)c2[nH]c(C)c(C(C)=O)c2C)cc1OC
→ -6 | · | · | · | -1

Some of the compounds tested (hit frequency here may not be typical).
